Screening results (PubChem BioAssay)
D2 potentiator = potentiates the human D2 dopamine receptor allosterically; potentiation, % (concentration not given with the values); actives 0.23% (n = 360,000); P14416; DiscoveRx D2 beta-arrestin cells, luminescence, 90 min; 100% = 57 uM dopamine signal; active = potentiation of 50% or more; inconclusive = 30% to 50%; inactive = 30% or less;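 also: compound concentration not given in the record; tested on top of an EC20 dose of dopamine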
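D2 cells co-treated with compound plus 50 nM dopamine (EC20) for 90 min at 37 deg C to detect potentiation. Beta-arrestin recruitment was read as enzyme-fragment luminescence after 1 h at ambient temperature. Full response was set by 57 uM dopamine.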
Six1-Eya2 inh = inhibitors of human Six1/Eya2 interaction. actives 0.56% (n = 360,000). AID 651725. activity change, % (no concentration beside the values). AlphaScreen GST-Six1/His-Eya2 binding, biochemical; hits give low values; control for the full effect not named in the record. Q15475+O00167; in the data active = activity change below about -65%; inconclusive = about -30% to -65%; inactive = above about -30%; also: % is scaled to controls: 0 for no effect and ±100 for the full control effect; compound concentration not given in the record
Target sequence (O00167 whole entry, looked up): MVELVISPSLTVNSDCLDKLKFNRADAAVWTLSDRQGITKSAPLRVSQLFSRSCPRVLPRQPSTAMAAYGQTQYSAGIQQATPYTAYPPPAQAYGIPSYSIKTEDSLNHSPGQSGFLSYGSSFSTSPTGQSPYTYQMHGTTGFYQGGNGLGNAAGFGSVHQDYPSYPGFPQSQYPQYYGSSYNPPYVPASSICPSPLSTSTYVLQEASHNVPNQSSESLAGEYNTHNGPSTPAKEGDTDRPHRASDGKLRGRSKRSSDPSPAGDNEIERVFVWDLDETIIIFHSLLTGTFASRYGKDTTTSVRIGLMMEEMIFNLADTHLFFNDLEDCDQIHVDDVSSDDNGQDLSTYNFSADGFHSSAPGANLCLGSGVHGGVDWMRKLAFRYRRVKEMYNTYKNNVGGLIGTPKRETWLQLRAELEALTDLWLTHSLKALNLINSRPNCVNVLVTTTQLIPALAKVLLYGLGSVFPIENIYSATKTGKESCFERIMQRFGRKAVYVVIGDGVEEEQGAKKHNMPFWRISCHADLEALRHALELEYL
Target sequence (Q15475 whole entry, looked up): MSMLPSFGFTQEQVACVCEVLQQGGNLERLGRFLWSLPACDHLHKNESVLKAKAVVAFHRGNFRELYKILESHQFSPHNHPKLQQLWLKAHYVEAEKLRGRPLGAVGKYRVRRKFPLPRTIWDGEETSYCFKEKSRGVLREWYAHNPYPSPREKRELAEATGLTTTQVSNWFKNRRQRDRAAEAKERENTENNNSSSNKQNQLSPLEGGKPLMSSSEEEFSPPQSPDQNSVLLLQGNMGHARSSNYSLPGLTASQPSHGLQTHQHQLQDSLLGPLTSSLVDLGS
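Homogeneous AlphaScreen proximity assay pairing GST-Six1 with His-tagged Eya2 (added as 5X mix: 250 nM and 500 nM) in 50 mM Tris pH 8.0, 300 mM NaCl, 1 mM TCEP. Glutathione donor and nickel acceptor beads; 1 h, 37 °C, dark.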
TRPV1 PAM = human TRPV1 potentiation. actives 0.02% (n = 320,000). TRPV1-expressing cells, Fluo-8 calcium influx, capsaicin EC20 potentiation; host cell line not named in the record; control for the full effect not named in the record. potentiation, % at 8.33 µM; active means potentiation above 80%; inconclusive means 30% to 80%; inactive means below 30%; also: 0% is about no effect
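Fluo-8 calcium influx in TRPV1-expressing cells, kinetic read (ex 480/em 520 nm). Compound added and read 3 min for agonist activity, followed by capsaicin at EC20 final and 2 min further read for enhancement.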
CtBP-E1A blk = inhibitors of CtBP/E1A interaction; AlphaScreen GST-E1A/His-CtBP binding, 1536-well; hits give low values; control for the full effect not named in the record; actives 0.49% (n = 340,000); AID 651724; activity change, % (test concentration not listed); in the data active means activity change below about -65%; inconclusive means about -30% to -65%; inactive means above about -30%; also: % is scaled to controls: 0 for no effect and ±100 for the full control effect; compound concentration not given in the record
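Homogeneous bead-based format: GST-tagged E1A captured on glutathione donor beads, His-tagged CtBP on nickel acceptor beads; compounds precede bead addition by 2 h at 37 °C.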
TRPML1 agonist = activates the human TRPML1 channel; Q9GZU1; TRPML1-expressing cells, Ca2+ dye fluorescence, FDSS; host cell line not named in the record; reference of the full effect not given here; activation, % (concentration not given with the values); actives 0.12% (n = 410,000); in the data active = activation above about 50%; inconclusive = about 30% to 50%; inactive = below about 30%; also: 0% is about no effect; the text of the record puts the active cut at 80%
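Agonist activity was taken from a 110 s kinetic Ca2+ dye read on the FDSS after pinning compounds onto TRPML1-DL cells. The cells were seeded at 1,500/well with Tet inducer, incubated about 16 h, then dye-loaded at room temperature.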
TRPML1 inh = blocks the human TRPML1 channel; activity change, negative = inhibition, % (concentration not given with the values); TRPML1-inducible cells, Ca2+ dye fluorescence, FDSS; hits give low values; inhibition of EC80 agonist-evoked calcium signal; Q9GZU1; actives 0.02% (n = 390,000); AID 624415; in the data active means activity change below about -50%; inconclusive means about -30% to -50%; inactive means above about -30%;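 also: stimulus is agonist 54-4 at its EC80 concentration; % is scaled to controls: 0 for no effect and ±100 for the full control effect; compound concentration not given in the record; the text of the record puts the active cut at -80%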
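Calcium fluorescence in TRPML1-DL cells induced overnight with Tet: a 110 s read after compound pin addition, then a 110 s antagonist read after challenge with 54-4 at 4 uM final (EC80).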
* hit, by the source's call; ? = inconclusive; nt = not tested or not shown; & = joins results of further samples.

Each structure is followed by: TRPML1 agonist	Six1-Eya2 inh	CtBP-E1A blk	TRPV1 PAM	D2 potentiator	TRPML1 inh
- NS(=O)(=O)c1ccc(CCNC(=O)c2cc([N+](=O)[O-])ccc2N2CCOCC2)cc1
  0.0	0	nt	5	1	8
- CC1=C(C(=O)N2CCOCC2)CC(CC(=O)NC2CCCC2)C(=O)N1Cc1ccccc1 (centres undefined)
  -0.3	10	-7	nt	2	20
- COC(=O)C(CC(C)C)NC(=O)C(N)Cc1ccccc1 (centres undefined)
  -0.3	5	6	16	-9	9
- Clc1cccc(OCc2nc(-c3ccncc3)n[nH]2)c1
  -0.2	1	-4	-48	-6	-6
- COc1ccc(C(C)(C)C)cc1NC(=O)Nc1ccc2c(c1)OCO2
  0.9	?	?	-9	-19	3
- CC(=O)Nc1ccc(OC(F)(F)Cl)cc1
  0.4	0	nt	0	-9	0
- COc1ccc(CN(C(=O)c2snc(C(N)=O)c2N)C(C(=O)NC2CCCC2)c2cc(OC)ccc2OC)cc1 (centres undefined)
  -0.8	-19	-2	4	-6	-3
- Cc1c(C(=O)N2CCOCC2)c(S(=O)(=O)Nc2cccc(F)c2)c(C)n1C
  -0.6	21	3	-4	-8	8
- COCCn1c(SCC(=O)Nc2ccc(OC)cc2OC)nc2ccccc2c1=O
  0.4	2	-2	-6	-3	31
- CC(NC1c2ccccc2-c2ccccc21)c1ccccc1 (centres undefined)
  2.6	8	3	1	-2	17
- COc1ccccc1N(CC(O)CN1CCCCC1)S(=O)(=O)c1ccc(C)cc1 (centres undefined)
  0.6	16	2	23	-10	22
- CCOc1ccc2c(c1)c1nnc(SCC(=O)N3CCC(C)CC3)nc1n2C
  -0.3	-9	-17	-18	-4	-3
- CCC/C=C1/CCCOC(C(=O)NCc2ccc(S(C)(=O)=O)cc2)(C(F)(F)F)C1 (centres undefined)
  1.0&2.3	4	7	nt	-7	4&-5
- CC(C)[C@H](NC(=O)NCCc1ccc(Cl)cc1)C(=O)O
  1.7	4	4	5	-16	-9
- Cc1cc(C(=O)COC(=O)c2ccc(NC(=O)CC#N)cc2)c(C)n1-c1ccc(OC(F)F)cc1
  0.1	-24	-26	nt	-3	-13

The closing 3 records of the section above come first, to join the parts.
Each structure is followed by: TRPML1 agonist	Six1-Eya2 inh	CtBP-E1A blk	TRPV1 PAM	D2 potentiator	TRPML1 inh
- CCC/C=C1/CCCOC(C(=O)NCc2ccc(S(C)(=O)=O)cc2)(C(F)(F)F)C1 (centres undefined)
  1.0&2.3	4	7	nt	-7	4&-5
- CC(C)[C@H](NC(=O)NCCc1ccc(Cl)cc1)C(=O)O
  1.7	4	4	5	-16	-9
- Cc1cc(C(=O)COC(=O)c2ccc(NC(=O)CC#N)cc2)c(C)n1-c1ccc(OC(F)F)cc1
  0.1	-24	-26	nt	-3	-13
- O=C(CN1C(=O)NC(c2ccccc2)(c2ccccc2)C1=O)NCc1ccc(F)cc1
  -0.1	-3	1	nt	-1	-10
- COCCn1c(C)cc(C(=O)COC(=O)C23CC4CC(CC(O)(C4)C2)C3)c1C
  -0.6	-4	3	6	-6	2
- COc1cccc(NC(=O)Nc2cc(C(=O)O)ccc2N2CC3CC(C2)c2cccc(=O)n2C3)c1 (centres undefined)
  -0.7	-2	-3	1	-4	-11
- Cc1c(C(=O)OCC(=O)NCCN2C(=O)CSC2=O)cccc1[N+](=O)[O-]
  2.8	7	2	-14	-1	7
- CCc1ccccc1NC(=O)C(CC)Sc1nc2cc3c(cc2c(=O)n1Cc1ccco1)OCO3 (centres undefined)
  -0.5	7	0	14	-16	-23
- CC(C)(C)NC(=O)C1CCCN(S(=O)(=O)c2cccc3cccnc23)C1 (centres undefined)
  1.5	-3	3	nt	-3	18
- CCn1c(=O)cc(OCC(=O)NCCCN2CC(C)CC(C)C2)c2ccccc21 (centres undefined)
  0.4	1	-2	-5	-26	-11
- O=C(Cn1c(=O)cnc2ccccc21)NC1CCC(O)CC1 (centres undefined)
  -0.4	-2	6	1	-6	-12
- COc1ccc(C(=O)NCc2nnc(SCC(=O)NC3=NCCS3)n2C)cc1
  0.1	9	-11	4	-9	29
- O=C1CC(N2CCc3ccccc32)C(=O)N1c1ccc(F)cc1 (centres undefined)
  -0.4	-7	1	1	0	1
- O=C(NC(=S)Nc1ncc(Br)cc1Br)c1cncc(Br)c1
  -0.4	-3	3	-15	-13	-14
- CCCCOC(=O)c1ccc(NC(=O)/C=C/c2cccs2)cc1
  0.8	7	26	-2	3	8
- Cc1sc(NC(=O)C2CC(Cl)=CCC2C(=O)O)c(C#N)c1C (centres undefined)
  1.1	2	1	-1	0	16
- COc1ccc(S(=O)(=O)N2CCN(Cc3cc(=O)n4ccccc4n3)CC2)cc1
  0.1	5	9	4	-4	1
- COc1ccc(OC)c(S(=O)(=O)n2nnc3cc(Cl)ccc32)c1
  0.3	8	0	nt	-6	-1
- CCN(CC)c1ccc(S(=O)(=O)N2CCCCC2)cc1NC(=O)CN1C(=O)NC2(CCCC2)C1=O
  1.2	-7	-19	-3	9	15
- CC1CC(NC(=O)CC#N)CC(C)(C)C1 (centres undefined)
  0.1	2	-3	-15	-3	23
- CN(C)CCN1CCN(C2CN(Cc3cn(Cc4ccc(C(F)(F)F)cc4)nn3)S(=O)(=O)C2)CC1 (centres undefined)
  -0.4	-3	3	nt	nt	nt
- CCCCCCCC(=O)N/N=C(\C)c1cccnc1
  -0.9	4	10	-13	1	28
- COCCNC(=S)Nc1ccc(Cl)c(Cl)c1
  0.0	10	14	-16	-4	3
- Cc1cc(OCC(=O)N2CCN(c3ccccc3)CC2)c2c(C)cc(=O)oc2c1
  0.8	4	nt	6	-3	-8
- Cn1c(SCC(=O)N2CCCCCC2)nc2c(c1=O)SCC2
  0.8	3	2	5	2	-4
- CCOC(=O)CNC(=O)N1CCC(CCC(=O)N(C)Cc2ccccc2)CC1
  0.0	3	5	-4	4	-1
- COc1ccc(-c2c(C#N)c(C)nc3c2C(=O)c2ccccc2-3)cc1
  -0.4	-2	nt	7	7	-6
- O=C(C[C@@H]1C/C=C\C[C@H](Cc2ccc(F)cc2)C(=O)OC[C@@H](Cc2c[nH]c3ccccc23)NC1=O)NCCO
  -0.4	1	0	nt	-6	23
- O=C(N/N=C/c1cc(O)ccc1[N+](=O)[O-])c1ccc2c(c1)OCCO2
  1.6	-18	-21	-3	-4	19
- Cn1c(Cn2c(=O)sc3ccccc32)nnc1SCC(N)=O
  0.4	5	3	7	-1	-4
- NC(=O)C(c1ccc(Cl)cc1)c1ncc(C(F)(F)F)cc1Cl (centres undefined)
  -0.2	-2	-2	2	-16	-7
- CC(C)[C@H](NC(=O)c1ccccc1F)C(=O)NCCc1ccccc1
  -0.5	0	4	6	0	-12
- COc1cccc(NC(=S)/C(=C(\[O-])c2ccc(OC(F)F)cc2)[n+]2ccccc2)c1
  0.5	3	nt	?	-16	-3

Quoted from the listing:
O=C(N/N=C/c1cc(O)ccc1[N+](=O)[O-])c1ccc2c(c1)OCCO2 | CtBP-E1A blk: -21
COc1ccc(-c2c(C#N)c(C)nc3c2C(=O)c2ccccc2-3)cc1 | TRPV1 PAM: 7

More structures follow:
Each structure is followed by: TRPML1 agonist	Six1-Eya2 inh	CtBP-E1A blk	TRPV1 PAM	D2 potentiator	TRPML1 inh
- C=CCc1c(C)nc2c(C(=O)O)cnn2c1C
  0.0	-2	6	3	0	13
- COc1ccc(-n2c(SCC(=O)Nc3ccc(Cl)cc3)nc(O)c(Cc3ccccc3)c2=O)cc1
  0.9	-6	-7	3	-15	-3
- Clc1ccccc1Cc1noc(CN2CCN(c3cnccn3)CC2)n1
  -0.9	-11	1	1	-24	-3
- O=C(NCc1ccccc1F)c1ccc2c(c1)OCO2
  0.5	5	1	-3	-1	8
- O=S(=O)(Nc1ncccc1O)c1ccc(Cl)cc1
  0.5	2	-2	6	-3	-5
- O=C(OCc1ccc(F)cc1)c1cccnc1Cl
  -0.8	8	9	4	3	-6
- C[C@@H]1CN([C@H](C)CO)C(=O)CCCn2nncc2CO[C@H]1CN(C)S(=O)(=O)c1ccc(C#N)cc1
  1.2	3	3	nt	7	-6
- Cc1ccc(OCCn2cnc(Cl)c2Cl)cc1
  -0.6	-21	-3	-2	0	12
- CCn1nc(C)c(Br)c1-c1nc(-c2cccc(C)c2)no1
  -0.5	5	nt	nt	-16	40
- C#CCn1c(=NC(=O)c2ccc(Br)s2)sc2cc(NC(C)=O)ccc21
  0.2	-1	-1	-3	15	1
- CCCc1cc(=O)n2[nH]c(C)c(-c3ccc(Cl)cc3)c2n1
  4.8	-13	-1	12	-3	20
- Cc1[nH]c2ccccc2c1SCC(=O)N1CCC(C)CC1
  3.3	-6	nt	10	-2	3
- CC(NC(=O)c1ccccc1[N+](=O)[O-])C1CC2CCC1C2 (centres undefined)
  0.3	7	-8	-14	-6	0
- CCC(c1nnnn1Cc1ccco1)N1CCN(c2cc(Cl)ccc2C)CC1 (centres undefined)
  -0.3	-11	-9	20	-29	4
- Cc1ccc(NC(=O)COc2ccc3c(c2)OCO3)c(C)c1
  -0.3	-1	20	-23	-26	-4
- CCOC(=O)c1cc(-c2ccc(OC)cc2)nc2c1c(C)nn2CCC(N)=S
  0.6	-10	-8	-9	-14	11
- Nc1cc(=O)[nH]c(SCC(=O)Nc2cc(S(=O)(=O)N3CCOCC3)ccc2Cl)n1
  -0.7	21	0	-7	1	-3
- COc1ccccc1-c1cc(C(=O)Nc2sc3c(c2C#N)CCC(C)C3)c2ccccc2n1 (centres undefined)
  -0.8	-17	-2	14	-3	26
- O=S(Cc1cc(Sc2ccccc2)nc(-c2ccccc2)n1)c1ccccc1 (centres undefined)
  0.0	14	4	-10	-22	15
- O=C(NCCc1ccncc1)Nc1ccc(Cl)cc1
  -0.8	10	5	-7	-17	0
- COc1ccc(NC(=O)CC2C(=O)N(c3ccc(OC)cc3)C(=O)N2Cc2ccc(OC)c(OC)c2)cc1 (centres undefined)
  3.9&0.3	3	7	12	-17	-2&-25
- Cc1cc(OCCN2CCCC2)cc(C(C)C)c1
  -1.2	2	4	3	-30	-9
- CCCc1cc(=O)oc2cc(C)cc(OC(=O)c3ccco3)c12
  1.0	5	2	-11	-6	22
- COc1ccc(C(C(=O)NCc2ccccc2)N(C(=O)c2snc(C(N)=O)c2N)C2CCCC2)cc1O (centres undefined)
  -0.1	2	4	8	-8	2
- CC(C)CCNC(=O)c1ccccc1SCC(=O)NC1CCCCCCC1
  1.5	-4	13	13	-16	15
- O=C(COC(=O)c1ccc(F)cc1)NCCc1ccc(F)cc1
  -0.4	1	7	-21	3	3
- CCCCn1c(=S)[nH]c2c(=O)n(C)c(=O)n(C)c21
  -0.3	-7	-6	nt	-22	-19
- COc1cccc([C@@H]2CC=C(C(=O)O)[C@H](c3ccc(Br)cc3)N2S(=O)(=O)c2ccc(C)cc2)c1
  -0.3	2	2	nt	nt	-7
- Cc1cc(C)cc(N2CCCC2=O)c1
  -0.5	12	7	?	-23	-18
- Cc1ccc(CN2CCC(C(=O)Nc3ccc(Oc4cccnc4)cc3)CC2)cc1
  0.5	-4	17	-5	-36	-4
- Cc1ccc(Oc2ccc(-c3nc(N)nc(N)n3)cc2)cc1
  0.3	-2	-2	-2	-18	-1
- CS(=O)(=O)N1CCc2cc(NC(=O)c3ccc(Cl)cc3Cl)ccc21
  0.2	5	5	6	0	0
